TRPML1 inh = inhibitors of human TRPML1 channel. Q9GZU1. TRPML1-inducible cells, Ca2+ dye fluorescence, FDSS; hits give low values; inhibition of EC80 agonist-evoked calcium signal. activity change, negative = inhibition, % (test concentration not listed). 390,000 tested, 0.02% active. AID 624415; in the data active means activity change below about -50%; inconclusive means about -30% to -50%; inactive means above about -30%;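 further: stimulus is agonist 54-4 at its EC80 concentration; on the % scale 0 is the no-effect control and ±100 the full control effect; compound concentration not given in the record; the text of the record puts the active cut at -80%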
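Tet-induced TRPML1-DL cells loaded with Ca8 no-wash calcium dye were read kinetically on FDSS. Compound addition was followed by EC80 agonist 54-4 (4 uM final); inhibition was read over 110 s.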
Sfp inh = Sfp phosphopantetheinyl transferase inhibition | Q9F4F7 | Biochemical Sfp PPTase activity, qHTS | Potency, µM, for inactives: max response, negative = inhibition, usual class: inhibitors | 310,000 tested, 3.5% active | AID 1490; active means well fitted inhibition curve with a large enough effect; inconclusive means small, poorly fitted or top-dose-only effect, or another doubt; inactive means no such curve, though single readings can be large or run the other way;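 further: the enzyme is Sfp with the accession as filed and its product quenches rhodamine fluorescence; potency means the concentration at half of the fitted maximal effect; 0% = enzyme reaction without inhibitor and -100% = no enzyme wells; top concentration of the series not given in the record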
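With Hepes-Na pH 7.6 buffer containing 10 mM MgCl2, Sfp (15 nM) modified BHQ-2-YbbR (12.5 uM) using rhodamine-CoA (5 uM). Two reads 30 minutes apart at 525/598 nm yielded each well's rate.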
Menin MLL FP FL = displaces fluorescein MLL peptide from human menin; Fluorescence polarization, fluorescein-MLL peptide displacement from menin; FP activity change, % at 61.4 µM; 290,000 tested, under 10 active; AID 1766; inconclusive = falling polarisation curve, or a change in total fluorescence; inactive = total fluorescence flat and polarisation flat or rising; no compound was filed as active; the % refers to the polarisation; negative = inhibition;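 further: % of control where 0% means no effect; inhibitors lower the polarisation; unlabelled MLL peptide was the positive control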
ClpP mod = qHTS Assay for Activators of ClpP; ATP-dependent Clp protease proteolytic subunit (Bacillus subtilis (strain 168)), P80244; purified B. subtilis ClpP, FRET peptide cleavage, 20 min; Potency, µM (titrated, usually from 57.5 µM), for the others: at the top dose activity change, negative = active; 340,000 tested, 1.9% active; active = well fitted falling curve with a large enough effect; inconclusive = small, poorly fitted or top-dose-only effect; inactive = no such curve, though single readings can be large or run the other way; further: potency means the concentration at half of the fitted maximal effect; the source files actives as falling curves though it sought activators and does not explain the sign; nearly all actives have a fitted effect of over 65% in size; many hits overshoot -100%
Target sequence (P80244 whole entry, looked up): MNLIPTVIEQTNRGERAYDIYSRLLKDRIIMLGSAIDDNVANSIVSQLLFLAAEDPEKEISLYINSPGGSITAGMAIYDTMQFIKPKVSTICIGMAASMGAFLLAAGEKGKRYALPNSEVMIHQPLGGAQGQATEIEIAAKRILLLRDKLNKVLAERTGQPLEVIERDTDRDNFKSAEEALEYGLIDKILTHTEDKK
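Buffer: 100 mM Tris/HCl pH8, 100 mM KCl, 0.05% low protease BSA, 2.5% glycerol, 0.01% Tween-20. ClpP 10 microg/mL final; 20 min RT; delta FRET normalized to ADEP and DMSO controls.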
TRPV1 PAM = potentiators of human vanilloid receptor 1 (TRPV1) | 320,000 tested, 0.02% active | potentiation, % at 8.33 µM | TRPV1-expressing cells, Fluo-8 calcium influx, capsaicin EC20 potentiation; host cell line not named in the record; control for the full effect not named in the record; active means potentiation above 80%; inconclusive means 30% to 80%; inactive means below 30%; further: 0% is about no effect
Target sequence (Q8NER1 whole entry, looked up): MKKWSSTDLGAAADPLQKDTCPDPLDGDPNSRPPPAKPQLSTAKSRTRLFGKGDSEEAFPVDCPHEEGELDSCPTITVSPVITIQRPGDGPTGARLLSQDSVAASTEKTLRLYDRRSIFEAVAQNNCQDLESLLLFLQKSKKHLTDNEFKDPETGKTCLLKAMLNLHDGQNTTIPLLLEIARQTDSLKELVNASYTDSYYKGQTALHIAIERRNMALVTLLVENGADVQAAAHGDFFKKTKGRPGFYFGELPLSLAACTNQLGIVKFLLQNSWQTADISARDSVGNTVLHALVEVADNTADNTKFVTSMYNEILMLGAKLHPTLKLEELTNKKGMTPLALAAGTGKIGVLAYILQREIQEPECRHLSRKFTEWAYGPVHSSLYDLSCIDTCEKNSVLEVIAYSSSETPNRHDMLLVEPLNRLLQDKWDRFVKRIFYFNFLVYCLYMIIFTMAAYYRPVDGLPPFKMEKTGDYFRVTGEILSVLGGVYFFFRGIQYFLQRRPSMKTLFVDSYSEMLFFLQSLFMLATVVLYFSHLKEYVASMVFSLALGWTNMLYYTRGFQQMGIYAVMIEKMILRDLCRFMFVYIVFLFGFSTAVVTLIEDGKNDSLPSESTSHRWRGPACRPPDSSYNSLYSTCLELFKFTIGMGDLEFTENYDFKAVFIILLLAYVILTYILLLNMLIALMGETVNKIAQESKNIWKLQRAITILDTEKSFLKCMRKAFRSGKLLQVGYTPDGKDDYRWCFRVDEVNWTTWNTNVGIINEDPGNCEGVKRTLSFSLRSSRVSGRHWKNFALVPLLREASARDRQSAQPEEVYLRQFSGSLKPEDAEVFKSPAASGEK
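Fluo-8 calcium influx in TRPV1-expressing cells, kinetic read (ex 480/em 520 nm). Compound added and read 3 min for agonist activity, followed by capsaicin at EC20 final and 2 min further read for enhancement.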
gsp antag = antagonists of gsp mutant (McCune-Albright syndrome); gsp-mutant cells, cAMP HTRF, 30 min; control for the full effect not named in the record; Potency, µM (highest dose often 76.9 µM), inactives show at the top dose activity change, negative = inhibition, most hits filed as inhibitors; 340,000 tested, 0.4% active; active = falling curve of any shape with a large fitted effect; inconclusive = falling curve, mostly with a smaller effect; inactive = flat or rising curve; cell line not stated here;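 further: intracellular cAMP measured with PDE inhibitor Ro 20-1724 present during compound exposure; potency means the concentration at half of the fitted maximal effect; on the % scale 0 is the no-effect control and ±100 the full control effect; nearly all actives have a fitted effect of over 65% in size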
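Cells in G418 medium, seeded 16-24 h, 37C; buffer exchange to DPBS + 1 mM CaCl2, 0.5 mM MgCl2, 0.05% BSA; cpds in DMSO + […] (300 uM stock), 30 min 37C; HTRF cAMP detection.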
gsp ag = activates gsp, the McCune-Albright syndrome mutation | gsp mutant cells, cAMP HTRF, 30 min; control for the full effect not named in the record | Potency, µM (doses to about 76.9 µM), inactives show top-dose activation (cAMP increase), most hits filed as activators | 340,000 tested, 0.13% active; active = well fitted activation curve with a large enough effect; inconclusive = small, poorly fitted or top-dose-only effect, or another doubt; inactive = no such curve, though single readings can be large or run the other way; cell line not stated here;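 further: phosphodiesterase inhibitor Ro 20-1724 added with compounds to block cAMP breakdown; potency means the concentration at half of the fitted maximal effect; nearly all actives have a fitted effect of over 60% in size; about a fifth of the inactives were tested at one dose only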
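Cells in DMEM/10% FBS with G418 were pretreated with compounds in DMSO plus […] (300 uM stock) for 30 min at 37C. cAMP was measured by HTRF (cAMP-d2 plus anti-cAMP antibody-K) after 30 min at room temperature.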
* hit, by the source's call; ? = inconclusive; . = not tested or not shown; & = joins results of further samples; [ ] = remark or other dose. Rows are unselected, and some 4.9% of all compounds hit somewhere here.

SMILES | TRPML1 inh | Sfp inh | Menin MLL FP FL | ClpP mod | TRPV1 PAM | gsp antag | gsp ag
CC(=O)N1CCN(CC(=O)Nc2c(Cl)cc(Cl)cc2Cl)CC1 | -1 | -9% | -2.2 | -1.0% | 20 | 8% | -26%
CC1C(=O)N2CCCc3cc(NC(=O)C4CCCCC4)cc1c32 (centres undefined) | 3 | . | . | -3.3% | -17 | 9% | -7%
O=C(/C=C/c1ccco1)NC(=S)Nc1ccc(Cl)cn1 | 4 | -20% | ? | -3.1% | 13 | 0% | 15%
COc1ccc(Br)cc1C(=O)NCc1cccnc1 | 11 | 11% | 8.0 | 0.4% | 2 | 10% | ?
CSc1ccccc1NC(=O)c1onc(C)c1Cl | -1 | 25% | -1.3 | 0.0% | -35 | -6% | 27%
COc1cccc(OC)c1C(=O)OCC(=O)Nc1ccc(OC(F)(F)F)cc1 | 7 | 10% | 0.5 | 1.9% | 2 | ? | 10%
CCc1cccc(CC)c1NC(=O)CO/N=C(\C)c1cccs1 | 1 | -10% | 0.0 | 0.6% | -11 | 4% | 1%
CN1C(C)(C)CC(NC(=O)c2ccco2)CC1(C)C | -5 | 10% | 5.3 | 1.1% | -1 | 9% | 24%
CN(C)CC(CCC(CN(C)C)C(O)(c1ccccc1)c1ccccc1)C(O)(c1ccccc1)c1ccccc1 (centres undefined) | 39 | -2% | -8.1 | . | -18 | 17% | -36%[inhibitor]
CCOc1ccccc1C(=O)NC(C)c1ccc(-n2ccnc2)cc1 (centres undefined) | -3 | 10% | -1.3 | 1.8% | 1 | 6% | -3%[15.4 µM]
COc1ccccc1C(c1nnnn1C(C)(C)C)N1CCN(C(=O)c2ccco2)CC1 (centres undefined) | 28 | 5% | 1.2 | -3.0% | ? | -5% | -25%
CCCC(=O)N1CCC(Cc2ccccc2)CC1 | 44 | 8% | 2.0 | -2.8% | -6 | -12% | -185%[inhibitor]
O=C(CN1CCN(c2ccccc2)CC1)N1CCN(c2ccccc2)CC1 | 7 | 6% | 1.6 | 0.4% | 4 | 0% | -5%
CCC(CC)C(=O)Nc1cccc(C(=O)NCc2ccco2)c1 | 3 | -61% | 2.2 | -1.0% | -9 | 6% | -11%
O=C(NC(=S)Nc1ccccc1Cl)c1csnn1 | -8 | 50µM* | 2.4 | -1.4% | 4 | 0% | -6%
Cc1ccc(CNC(=S)NC2CCC(C(C)(C)C)CC2)cc1 (centres undefined) | 2 | 19% | -4.4 | -3.3% | 20 | 5% | 3%
Cc1ccc(CCC(=O)Nc2ccc(Br)cc2)o1 | -1 | 18% | -0.4 | -1.1% | -5 | 16% | -35%[inhibitor]
O=C(COc1ccc([N+](=O)[O-])cc1)Nc1ccc2c(c1)nc1n2CCOC1 | ? | 4% | 2.4 | -11% | 10 | -4% | 22%
CCC(=O)c1ccc(OCC(=O)OCC(=O)Nc2ccc3c(c2)OCCO3)cc1 | -19 | . | . | . | . | -14% | 0%
CCOc1ccc(-n2c(SCC(=O)Nc3ccccc3CC)nc3n[nH]c(C)c3c2=N)cc1 | . | -1% | 1.6 | . | 19 | . | .
O=C(CCc1ccc(S(=O)(=O)N2CCOCC2)cc1)NCCc1ccccn1 | -5 | 11% | 2.3 | 0.8% | -2 | -2% | -4%
CCC(CC)C(=O)NCc1cccnc1 | -2 | 17% | -1.1 | . | 7 | 1% | -12%[15.4 µM]
COc1cccc(NC(=O)CN2CCSc3ccccc32)c1 | -13 | 63µM* | -4.3 | 0.8% | 4 | 9% | -4%[15.4 µM]
CCC(C)c1ccccc1N1CC(C(=O)N2CCN(S(=O)(=O)c3ccccc3Br)CC2)CC1=O (centres undefined) | 9 | . | . | . | -6 | -9% | -13%[15.4 µM]
C[C@H](CO)N1C[C@H](C)[C@@H](CN(C)C)Oc2c(NS(=O)(=O)c3cn(C)cn3)cccc2C1=O | -3 | . | . | -11% | . | 4% | .
CCC1CCCCN1CCn1c(=S)[nH]c2cc(OC)c(OC)cc2c1=O (centres undefined) | 0 | -2% | 1.3 | -1.0% | -16 | 1% | 0%
O=C(CSc1nc(-c2ccccc2)cc(C(F)(F)F)n1)N1CCOCC1 | 44 | 5% | 6.5 | 0.2% | -13 | -24% | 29%
O=C(CN1CCC(C(=O)c2cccc(Cl)c2)CC1)Nc1ccc(C(=O)O)cc1 | 7 | 8% | 6.2 | . | -7 | -7% | -15%[15.4 µM]
CCOc1ccc(NC(=O)c2ccc(CSc3nnc(C)s3)cc2)cc1 | 6 | 9% | 1.7 | . | -9 | -7% | 2%[15.4 µM]
Cc1ccc2c(c1)N(CC(=O)NC1CCC(C)CC1)C(=O)CO2 (centres undefined) | 1 | 18% | 2.0 | 2.3% | -13 | 1% | -20%
CCC(=O)Nc1cccc(C2=NOC3(C2)C[C@H](C(N)=O)N(C(=O)c2ccc(Cl)cc2)C3)c1 (some centres undefined) | 6 | 2% | -1.0 | -3.5% | ? | 5% | .
COc1ccc2[nH]c3c(c2c1)CCN1C(=O)C(CC(=O)NCCc2ccccn2)C[C@H](C(=O)N2CCOCC2)[C@@]31CCC1CCCC1 (some centres undefined) | 7 | . | . | -0.6% | . | -6% | .
CN(C)CCCN(C(=O)c1ccc(S(=O)(=O)N2CCCC2)cc1)c1nc2ccc(Br)cc2s1 | -6 | -13% | . | 0.9% | 23 | -6% | -28%
COc1ccc(NC(=O)CCC(=O)NCCO)cc1 | -9 | 9% | 4.8 | . | -8 | 7% | 6%[15.4 µM]
CCOC(=O)C(C)Oc1cccc2c(=O)n(CC(=O)Nc3ccc(OCC)cc3)ccc12 (centres undefined) | 2 | 13% | -2.8 | ? | -8 | 12% | ?
O=C(Nc1cc2ccccc2oc1=O)c1ccccc1 | -4 | 19% | 1.4 | . | -13 | -1% | 6%[15.4 µM]
CC1=CC(c2ccccc2)=NS(=O)(=O)N1 | -15 | . | . | 2.4% | . | 15% | .
CN(C)C(=S)NC(=NCc1ccc([N+](=O)[O-])cc1)c1ccccc1 | -8 | -28% | -4.8 | -3.4% | -2 | 6% | 38%
O=[N+]([O-])c1cc(/C=N/N2CCOCC2)cs1 | 3 | 12% | -4.1 | 0.9% | 27 | -14% | 12%[15.4 µM]
COc1ccc(NC(=O)c2ccc(NC(=O)c3ccncc3)cc2)cc1 | 22 | 1% | 0.3 | . | 11 | 18% | 6%
Cc1ncc(N=Nc2ccccc2)c(-c2ccccc2)n1 | 18 | -1% | 4.3 | -1.1% | -5 | -22% | -4%
Cc1ccc(CC(=O)NCCS(=O)c2ccc(C)cc2)cc1 (centres undefined) | 42 | 3% | 4.4 | . | -25 | -16% | 6%
CCOC(=O)C1CCN(C(=O)C(=O)Nc2ccc3nc4n(c(=O)c3c2)CCCCC4)CC1 | 7 | 21% | 0.4 | -1.0% | 6 | 7% | -55%
Cc1ccc(/C=C/C(=O)N(Cc2cccs2)C2CCS(=O)(=O)C2)cc1 (centres undefined) | -2 | 0% | 0.8 | 2.8% | -6 | -16% | -31%[inhibitor]
Cc1ccc(NC(=O)c2cccc(OCc3c(C)noc3C)c2)cc1 | -7 | -2% | -1.4 | -1.3% | 4 | -13% | 1%
Cc1ccccc1-c1nc(CS(=O)CC(=O)NCCCN(C)c2ccccc2)c(C)o1 (centres undefined) | -5 | -10% | -7.1 | -2.5% | -2 | -5% | 10%
CC(C)C[C@@H](CSc1ccccc1)N1CCN(CCc2ccccc2)CCC1=O | 44 | -3% | -2.3 | -1.4%&2.1% | 1 | -5% | -39%
O=C(Nc1ccc(Cl)cn1)C1CCN(c2ncnc3c2nc2n3CCCCC2)CC1 | 6 | -2% | -7.4 | . | 2 | -15% | 2%
CC(=O)Nc1c(O)nc(SCC(=O)Nc2nnc(CC(C)C)s2)[nH]c1=O | -4 | -6% | 2.1 | -3.7% | 22 | 5% | -14%
C/C(=N\NS(=O)(=O)c1ccc([N+](=O)[O-])cc1)c1c[nH]c2ccccc12 | 2 | ? | -0.2 | 0.0% | 17 | 11% | ?
O=C(CCC1CCCC1)N=C1SC2CS(=O)(=O)CC2N1c1ccccc1F (centres undefined) | 4 | -24% | . | -2.3% | -12 | 0% | -5%
COc1ccc(NC(=O)CSCC(=O)N(C)CC(=O)Nc2cccc3ccccc23)cc1 | -1 | . | . | . | 5 | -7% | 1%[15.4 µM]
O=C(Nc1nc(=S)ss1)c1ccc(Cl)cc1Cl | -16 | 13µM* | 5.3 | -16% | 4 | 10% | -6%
Cc1ccc(-n2nc3ccc(NC(=O)c4cccc([N+](=O)[O-])c4C)cc3n2)cc1 | -23 | -12% | 1.9 | . | -1 | -17% | 17%[15.4 µM]
Fc1ccc(NC(=S)NCc2cccnc2)cc1 | -17 | -3% | 3.0 | . | 9 | 14% | -5%[15.4 µM]
CCOC(=O)CC(NC(=O)CCc1c(C)nc2nc(C)nn2c1C)c1ccc(C)cc1 (centres undefined) | 8 | 5% | -1.8 | . | -15 | 11% | -1%
COCCN(C(=O)C(C)C)c1nnc(-c2cccc(C)c2)s1 | 10 | 0% | -1.6 | -5.4% | ? | -20% | -5%
CNC[C@@H]1OCc2ccccc2-c2c(n(C)c3ccccc23)C(=O)N([C@H](C)CO)C[C@@H]1C | 22 | . | . | -2.7% | . | . | -26%
CCOC(=O)[C@@H]1[C@H]2COc3ccccc3[C@@H]2N2C(=O)N(c3ccc(Cl)cc3)C(=O)[C@]12C | -1 | 7% | 4.8 | -0.1% | 8 | -2% | -33%[inhibitor]
CCN(CC)c1ncccc1C(=O)NCc1cccs1 | -7 | 16% | 2.4 | -2.4% | -16 | 2% | 7%
CC(C)Oc1ccc(/C=C(\C#N)C(=O)NC2CC2)cc1 | 34 | . | . | . | . | 6% | ?
Cc1nc([N+](=O)[O-])c(C(=O)OCc2ccccc2Br)n1C | -9 | -5% | 0.1 | -1.4% | 1 | -3% | 14%[15.4 µM]
O=C(NNC(=O)c1cc(-c2ccc(Cl)cc2)nc2ccccc12)c1csc(N2CCOCC2)n1 | -9 | . | . | . | 13 | -19% | -20%[15.4 µM]
